A1 inh: caspase 3/7 activation in MEF A1-2A-BIM cells, primary screen, A1 inhibitor project, cell-based, luminescence, HTS. Caspase-Glo 3/7 luminescence, 3 h; percent of clofoctol response, vehicle zero. caspase activation, % (no concentration beside the values). actives 0.066% (n = 330,000);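 active = over half of replicate activation scores above 10%, or exactly half above 10 with the replicate mean above 10; inconclusive = replicate mean below 10 yet half the replicates above 10; inactive = over half of replicates below 10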;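 also: wells of about 30 µL received 50 nL stock; many hits fall short of the cut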
LANA-H2A inh: blockers of LANA interaction with H2A/H2B – biochemical, FP readout, HTS, primary screen | inhibition, % (test concentration not listed) | AID 2629, 2010 | cell-free LANA-H2A/H2B peptide, fluorescence polarization | actives 0.6% (n = 320,000); in the data active = inhibition mostly above about 10%, no sharp cut-off; inactive = mostly below about 6.7%;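 also: stock transfer was 7.5 nL into about 10 µL; 0% = median of vehicle wells and 100% = median of positive control wells; one replicate is shown; the record names a cut of 25% in any replicate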
Target sequence (Q9QR71 whole entry, looked up): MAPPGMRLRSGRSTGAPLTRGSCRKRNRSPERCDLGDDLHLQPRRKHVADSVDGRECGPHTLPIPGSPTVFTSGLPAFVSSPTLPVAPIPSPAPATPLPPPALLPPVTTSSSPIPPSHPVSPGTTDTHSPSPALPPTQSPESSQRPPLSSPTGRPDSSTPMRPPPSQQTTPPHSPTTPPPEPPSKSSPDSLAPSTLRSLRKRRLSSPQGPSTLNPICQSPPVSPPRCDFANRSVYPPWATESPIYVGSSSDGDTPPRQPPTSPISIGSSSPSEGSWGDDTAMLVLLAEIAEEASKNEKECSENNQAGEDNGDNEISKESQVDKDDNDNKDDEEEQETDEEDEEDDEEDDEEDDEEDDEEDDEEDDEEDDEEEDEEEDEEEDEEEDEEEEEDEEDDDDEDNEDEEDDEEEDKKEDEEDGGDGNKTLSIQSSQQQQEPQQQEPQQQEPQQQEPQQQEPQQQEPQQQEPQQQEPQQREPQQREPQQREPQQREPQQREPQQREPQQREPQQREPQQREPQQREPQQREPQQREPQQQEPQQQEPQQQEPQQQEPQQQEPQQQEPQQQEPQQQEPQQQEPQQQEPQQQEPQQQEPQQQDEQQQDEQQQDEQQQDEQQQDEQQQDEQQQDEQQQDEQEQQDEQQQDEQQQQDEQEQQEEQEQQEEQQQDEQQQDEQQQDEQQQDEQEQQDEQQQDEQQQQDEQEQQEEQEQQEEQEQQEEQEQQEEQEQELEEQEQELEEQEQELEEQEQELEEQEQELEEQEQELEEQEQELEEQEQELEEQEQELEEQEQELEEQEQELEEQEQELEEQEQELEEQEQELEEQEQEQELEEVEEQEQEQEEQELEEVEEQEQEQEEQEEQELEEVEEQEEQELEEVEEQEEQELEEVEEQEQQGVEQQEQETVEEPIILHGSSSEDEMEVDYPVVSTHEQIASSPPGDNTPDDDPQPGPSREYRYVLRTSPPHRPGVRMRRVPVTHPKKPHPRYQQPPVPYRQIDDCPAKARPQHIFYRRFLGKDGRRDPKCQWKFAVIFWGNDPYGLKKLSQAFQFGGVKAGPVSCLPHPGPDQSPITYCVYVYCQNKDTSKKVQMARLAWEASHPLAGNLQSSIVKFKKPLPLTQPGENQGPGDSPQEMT
HNF4A DNA FP: change in binding of human HNF4A to DNA, primary screen, biochemical, fluorescence polarization, FITC-DNA. Hepatocyte nuclear factor 4-alpha (Homo sapiens), P41235. 1 h. activity change, % at 10 µM. actives 0.3% (n = 360,000); in the data active = activity change above about 30%, passing the limit was not always enough;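 also: controls were the assay level and a saturating level of protein; the project sought stronger binding though the title names inhibitors; some compounds called inactive have numbers as strong as hits; positive values seem to mean higher polarization but the record does not say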
Vif A3G: inhibitors of Vif binding to APOBEC3G peptide, primary screen, biochemical, TR-FRET, GST-Vif 1-94, biotin-A3G peptide, dose response retest (AID 1117319). inhibition, %; hits with a dose series show IC50 in µM. Virion infectivity factor (Human immunodeficiency virus type 1 group M subtype B (isolate …. actives 0.57% (n = 260,000). TR-FRET GST-Vif / biotin-A3G peptide binding; higher % means a stronger effect; test concentration not given here; strong numbers were not always called active;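 active = above the screen mean plus three standard deviations and confirmed in dose response; inconclusive = results disagree or hit not tested in dose response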;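 also: Vif residues 1-94 fused to GST binding biotinylated APOBEC3G peptide 110-148; 0% = full assay without inhibitor and 100% = GST in place of GST-Vif; retest series ran down from 100 µM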
Beta2AR agonist: beta2AR agonists driving receptor internalization, primary screen, cell-based, FAP fluorogen, flow cytometry; Beta-2 adrenergic receptor (Homo sapiens), P07550; Am2.2-beta2AR cells; reference of the scale not given here; response, % (test concentration not listed); actives 0.43% (n = 340,000); AID 504454, 2011;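 active = response above a set limit, near 3 SD of response in nonfluorescent compounds, cut at about 42% in these data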;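 also: stock transfer was 100 nL into about 11 µL; a reference agonist was the positive control; negative values mostly stem from fluorescent compounds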
E coli growth: E. coli growth inhibition, primary screen, OD600. OD600 absorbance (concentration not given with the values). Escherichia coli growth, 23 h; stronger effect = lower value. AID 1053175, 2014. actives 0.21% (n = 330,000);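 active = OD600 absorbance below the run mean of sample wells minus 3.6 SD, in any replicate, cut at about 0.56 in these data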;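 also: stock transfer was 300 nL into about 60 µL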
UCH37 DUB inh: inhibitors of human UCH37 deubiquitinase, primary screen, biochemical, Ub-AMC cleavage, fluorescence | Ubiquitin carboxyl-terminal hydrolase isozyme L5 (Homo sapiens), Q9Y5K5 | purified proteasome/UCH37 | inhibition, % (no concentration beside the values) | actives 0.33% (n = 330,000) | AID 588478, 2011;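 active = mean of two replicates above 20%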;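 also: 0% = compound-free wells with enzyme and 100% = wells lacking proteasome; stock transfer was 100 nL into about 20 µL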
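assay system = human UCH37 enzyme supplied as purified proteasome complex | amount = proteasome at 0.15 nM in the dispensed enzyme solution | schedule = 30 min compound-proteasome preincubation then 25 min substrate reaction, room temperature | measured by = fluorescence, ex 355 nm, em 460 nm | benchmarks = no-proteasome wells (full inhibition) and compound-free wells (no inhibition)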
Active calls of the source: *; ? = inconclusive; . = not tested or not shown; & = joins results of further samples. Outcome played no part in choosing rows, and some 2.1% of all compounds hit somewhere here.

compound	A1 inh	LANA-H2A inh	HNF4A DNA FP	Vif A3G	Beta2AR agonist	E coli growth	UCH37 DUB inh
CCCc1ccc2oc(C(=O)N(C)Cc3ccn[nH]3)c(C)c2c1	-0.2	-0.6	-2.2	.	-3	0.69	1.2
CCCn1c2ccc(C)cc2c2nnc(SCCN3CCCCC3)nc21	.	.	-0.1	-5%	-11	0.68	5.4
COc1nc(N(CC(N)=O)S(=O)(=O)c2ccccc2)nc(C)c1Cl	-1.8	3.1	1.7	?	3	0.68	0.7
CC1CC(C(=O)Nc2ccccc2)C(=O)O1 (stereo unspecified)	0.1	3.3	0.1	.	-3	0.71	1.5
N/C(=N\OC(=O)Cc1ccc([N+](=O)[O-])cc1)c1ccc([N+](=O)[O-])cc1	-0.4	-0.9	4.5	1%	-4	.	.
COc1ccc(OC)c(CNC(=O)C2CCCN(C(=O)N(C)C)C2)c1 (stereo unspecified)	1.3	-19	0.6	5%	0	0.68	1.8
Cc1cccc(OC(C)C(=O)N2CCCc3ccccc32)c1 (stereo unspecified)	1.3	-1.3	-0.7	.	-1	0.65	5.5
OC1=C(O)c2nc3ccccc3nc21	0.1	5.3	3.9	0%	8	0.68	3.1
CN(CCCC1CCCC1)C(=O)CCc1nnc(-c2ccccc2)o1	-1.7	2.5	-0.9	2%	-10	0.63	2.4
Cc1c(NC(=O)C(C)Oc2ncnc3ccccc23)c(=O)n(-c2ccccc2)n1C (stereo unspecified)	0.3	1.5	1.2	7%	1	0.76	-1.3
CC(C)COc1cccc(C(=O)Nc2ccc(CN3CCOCC3)cc2)c1	1.1	0.4	0.5	-2%	-16	0.67	1.8
Cc1onc(-c2c(Cl)cccc2Cl)c1C(=O)N1CCN(c2ccccc2)CC1	0.6	4.8	-0.2	-3%	6	0.7	0.0
O=C(NCc1ccc(F)cc1)C1CC(=O)N(Cc2ccco2)C1 (stereo unspecified)	1.6	3.0	0.4	-1%	1	0.69	2.6
Cn1nnnc1SCC(=O)N1CCN(c2ccccc2)CC1	-1.0	-2.8	-1.3	9%	0	0.64	2.6
N#C/C(=C(/O)c1ccc([N+](=O)[O-])cc1)c1nnc2n1CCCCC2	0.8	0.5	-3.0	-7%	-1	0.71	9.0
CCOc1ccc2oc(=O)cc(CN3CCOCC3)c2c1	-0.9	0.7	1.3	-8%	-4	0.7	-27
O=C(COC(=O)c1ccco1)NC1CCCc2ccccc21 (stereo unspecified)	1.6	-20	1.4	.	-7	0.7	4.7
CCOC(=O)Cc1csc(NC(=O)CSc2nnnn2-c2ccc(C)c(C)c2)n1	-1.1	-2.8	6.8	2%	25	0.75	2.8
Cc1ccc(CCNC(=O)C2CCCN(S(=O)(=O)N3CC(C)CC(C)C3)C2)cc1 (stereo unspecified)	-0.6	-3.5	-2.1	-1%	-11	0.67	2.9
CC(=O)c1ccc(S(=O)(=O)N(C)CCCC(=O)NCc2ccc3c(c2)OCO3)cc1	.	.	-0.3	-5%	0	0.68	2.9
O=C(O)c1cccc(NS(=O)(=O)c2ccc3c(c2)OCCCO3)c1	-0.2	-4.3	1.4	20%	-2	0.68	3.7
COCCNC(=O)[C@H]1N2C(=O)c3c(ccc(OC)c3OC)C2SC1(C)C (stereo partly specified)	-0.9	1.4	2.5	0%	-3	0.69	-14
COc1cccc(CC(=O)Nc2cc(S(=O)(=O)N3CCOCC3)ccc2N2CCOCC2)c1	-0.7	-5.3	-1.1	.	10	0.69	-1.3
O=C(CCCN1C(=O)c2cccc3cccc(c23)C1=O)N1CCN(c2ccccc2O)CC1	0.3	0.4	3.4	12%	7	0.67	-9.2
CN1C(=O)C2ON(c3ccccc3)C(c3cccs3)C2C1=O (stereo unspecified)	-1.4	-7.8	5.3	4%	3	0.7	0.6
COc1ccccc1CNC(=O)CN(C)S(=O)(=O)c1ccc2c(c1)c(=O)n(C)c(=O)n2C	1.5	5.1	1.2	.	-3	0.66	1.1
COc1ccc(OC)c([C@@H]2OCCC=C[C@H]2C)c1	0.1	-7.2	-0.3	2%	-7	.	2.4
O=C1N=C(N2CCCC2)CN1c1ccccc1	0.1	1.5	0.1	.	-1	0.72	3.5
CC(/C=C/c1ccccc1)=N/NC(=O)Cn1nnc(N)n1	0.1	-2.3	-2.2	0%	1	.	.
Cc1nc2sc(C(c3ccco3)N3CCN(c4cccc(Cl)c4)CC3)c(O)n2n1 (stereo unspecified)	0.0	0.9	3.0	17%	3	0.67	4.7
CCN(CC)c1ncnc2c1cnn2C	0.2	1.3	2.3	-1%	4	0.65	0.1
Cc1ccc(NC(=O)c2cc(S(=O)(=O)N3CCCCC3)cs2)cc1	2.5	0.7	3.2	12%	-2	0.61	1.2
c1cc(Nc2cccc3nccnc23)c2nccnc2c1	0.2	-1.1	7.3	6%	-3	0.69	3.7
COc1cccc(NC(=O)Nc2cc(C(=O)O)ccc2C)c1	0.4	-4.2	2.0	-8%	-7	0.63	1.8
O=C(CSc1nnnn1-c1ccccc1)N1CCCc2ccccc21	0.2	-2.1	0.8	-1%	-5	0.72	3.4
COc1ccc(C(=O)c2c3ccc([N+](=O)[O-])cc3[n+]([O-])n2CCCN)cc1	0.3	4.1	2.8	.	9	0.5	8.2

Full records, looked up by structure. Order of values: A1 inh	LANA-H2A inh	HNF4A DNA FP	Vif A3G	Beta2AR agonist	E coli growth	UCH37 DUB inh
`CCN(CC)c1ncnc2c1cnn2C` in the list: 0.2	1.3	2.3	-1%	4	0.65	0.1
`COc1ccc(OC)c([C@@H]2OCCC=C[C@H]2C)c1` in the list: 0.1	-7.2	-0.3	2%	-7	.	2.4

(cont.)
compound	A1 inh	LANA-H2A inh	HNF4A DNA FP	Vif A3G	Beta2AR agonist	E coli growth	UCH37 DUB inh
Cc1ccc(CNC(=O)c2cc3c(=O)n(C)c4ccccc4c3n2C)o1	1.7	0.8	6.0	-1%	4	0.76	-2.7
CC(=O)N1CCOCCOCCOCC1	-0.2	5.9	2.7	-6%	0	0.67	6.5
O=C(CSc1nc(=O)n(CCN2CCOCC2)c2c1CCC2)Nc1ccc(OC(F)(F)F)cc1	-0.4	5.4	0.1	-195%	17	0.66	3.6
CCOC(=O)C1=C(c2ccccc2)N=C2SCC(=O)N2C1c1ccc2c(c1)OCO2 (stereo unspecified)	0.1	4.5	-0.1	4%	4	0.74	0.2
O=C(CCN1C(=O)c2ccccc2C1=O)NC(=S)Nc1cccc(Cl)c1	0.0	2.8	0.3	11%	-2	0.69	2.0
C[C@@H](C(=O)Nc1ccccc1N1CCOCC1)N1C(=O)C2CC=CCC2C1=O (stereo partly specified)	-0.2	-3.9	-2.1	5%	-5	.	-1.5
COc1ccc(NC(=S)N(CCCN2CCOCC2)C(C)c2cc3ccccc3o2)cc1 (stereo unspecified)	0.3	0.3	-2.3	0%	-4	0.64	1.6
C=CCn1c(-c2csc3ccccc23)n[nH]c1=S	0.8	1.7	0.2	-4%	3	0.66	2.6
COc1cc(C(C)=O)ccc1OCc1cc(C(=O)N(C)CCC2CCCCO2)no1 (stereo unspecified)	-0.2	-4.5	3.5	.	-1	0.7	0.5
OC1(CNCc2ccccc2)C2CC3CC(C2)CC1C3 (stereo unspecified)	0.0	-0.1	0.2	.	4	0.72	3.1
CCC(C)N1CCN(S(=O)(=O)c2ccc3ccccc3c2)CC1 (stereo unspecified)	1.6	-0.1	0.8	1%	0	0.66	-0.4
Cc1ccc(CCCOC(=O)CN2CCCCC2)cc1	-0.3	3.9	1.3	.	7	0.67	3.1
Cc1nn(Cc2ccc(F)cc2)c(C)c1NC(=O)c1cc(-c2ccc3c(c2)OCO3)on1	-0.3	-1.0	.	-2%&-4%	6	0.63	2.2
O=C1C=C(C2CCCCC2)C(=O)c2ccccc21	.	.	2.9	-5%	-3	0.65	-11
COC(=O)c1c(-c2c(Cl)cccc2Cl)noc1NC(=O)NN1CCOCC1	0.6	-1.4	2.0	1%	1	0.66	4.5
CCCCCCCCN1C(=O)C(O)=C(C(C)=O)C1c1ccccn1 (stereo unspecified)	0.5	4.7	-4.3	-4%	5	0.68	8.0
CC(C)C[C@H](NC(=O)c1[nH]cnc1C(=O)N[C@H](C)c1ccccc1)C(=O)OCc1ccccc1	0.5	-2.4	0.7	-6%	11	.	0.3
CN(C(=O)CS(=O)(=O)c1cccc(Cl)c1)c1ccccc1	0.5	5.9	-6.5	.	-6	0.64	-1.0
CS(=O)(=O)Nc1ccc(C2=NN(S(=O)(=O)c3ccccc3)C(c3cccs3)C2)cc1 (stereo unspecified)	-0.6	4.3	39	6%	1	0.64	2.6
CC(C)(C)C(=O)Nc1nnc(SCC(=O)NCc2ccco2)s1	-0.9	-3.4	2.3	.	-1	0.63	2.2
NS(=O)(=O)c1ccc(NC(=O)COC(=O)C2CC2)cc1	-0.8	-0.5	-1.2	-7%	-1	0.68	4.2
COc1ccc(NC(=O)/C(=C\c2ccco2)NC(=O)c2ccco2)cc1	0.2	-3.3	7.3	.	-9	0.64	8.6
CCCc1cc(C(=O)Nc2ccc(CC)cc2)no1	-1.7	-1.3	-4.7	3%	2	0.65	-0.2
O=C(Nc1ccc2ncccc2c1)c1cccc(Br)c1	-5.9	3.4	-0.2	.	-20	0.64	4.3
COCCNC(=O)CSc1nc2cc(OC)c(OC)cc2c(=O)n1CCC1=CCCCC1	.	.	-0.4	4%&21%	7	0.7	7.7
CCCc1ccc2oc(C(=O)NCCN3CCCC(C(N)=O)C3)c(C)c2c1 (stereo unspecified)	-0.3	2.5	2.8	.	6	0.71	3.5
CCOC(=O)c1c(C)[nH]c(C)c1C(=O)COC(=O)CCc1ccccc1	-0.1	-3.0	1.6	.	-2	0.71	1.1
O=C(C[n+]1cc(-c2ccccc2)n2c1CCCCC2)c1ccc(Cl)cc1	-0.2	6.1	0.9	.	-3	0.61	0.5
COc1ccccc1NC(=O)c1ccc(CN(c2cc(Cl)ccc2C)S(=O)(=O)c2ccccc2)cc1	0.7	-4.3	2.6	-6%	4	0.77	-2.0
NS(=O)(=O)c1ccc(CCNC(=O)CN2C(=O)c3ccccc3S2(=O)=O)cc1	-0.1	-2.1	-0.7	2%	3	0.66	2.4
Nn1c(SC/C=C/c2ccccc2)nnc1-c1ccco1	0.4	-3.7	0.4	1%	-30	0.69	1.0
COC(=O)c1cccc(Cn2nnc3ccccc3c2=O)c1	-0.1	0.2	2.4	6%	9	0.68	1.9
CCOC(=O)Cc1csc(NC(=O)CSc2ncnc3c2cnn3-c2ccccc2Cl)n1	.	.	0.2	8%	2	0.74	-3.6
CCOC(=O)c1c(-c2ccccc2)csc1NC(=S)NC	0.6	3.9	1.8	32%	0	0.66	7.4
O=S(=O)(c1ccc(NC(=S)NCc2ccco2)cc1)N1CCCCC1	0.6	3.6	2.4	.	-14	0.67	4.1
